# Calb biofilm kill: mixture kills Candida albicans biofilm cells; 0.02% of 120,000 active; AID 1242; C. albicans biofilm persisters + clotrimazole, fluorescence viability; primary screen in compound mixtures of four per well; inhibition, % at 7.6 µM;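 active = inhibition above 30.3% in the primary screen of four-compound pools, then above 30% when the compound was retested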;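 note: compounds exposed to preformed 24 h biofilms for 48 h; the number belongs to the whole pool; some results filed as inactive read as strong as hits; inactives centre near 12; 0% = biofilm with clotrimazole alone and 100% = kill control; retested singly at about 60 µM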
#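 System: C. albicans CAF4-2 wild-type biofilms; Medium: RPMI/MOPS medium, pH 7.0; Reagent: Clotrimazole, 50 µg/mL; Times: biofilm formation 24 h, compound exposure 48 h, 37 °C; Detection: 2-h Alamar Blue fluorescence, 535/590 nm excitation/emission; Evaluation: percent inhibition of biofilm viability.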
# Starred values were filed as active, the others as inactive; & = joins results of further samples. Some of the compounds tested; count on the stated rates, not on these rows.
mol	Calb biofilm kill
CC(C)NC(=O)NC(=O)COC(=O)c1ccc(F)cc1F	12
CCN(CC)S(=O)(=O)c1cccc(-c2n[nH]c(=S)n2/N=C/c2ccc(OC)cc2)c1	16
Cc1ccc(/C=C(\NC(=O)c2ccccc2)C(=O)N2CCCC2C(=O)O)cc1 (centres undefined)	5
CCC(=O)N1CCc2cc(S(=O)(=O)NC(Cc3ccccc3)C(=O)NC3CCCCC3)ccc21 (centres undefined)	20
Cc1nc(-c2ccccc2)sc1C1(C)CC(c2ccc([N+](=O)[O-])cc2)=NO1 (centres undefined)	15
Cc1[nH]c(=O)[nH]c(=O)c1NS(=O)(=O)c1ccccc1	8
O=C(NCc1cccnc1)c1ccc(-c2ccccc2[N+](=O)[O-])o1	9
O=C1OCCN1CCNCc1cn(-c2ccc(F)cc2)nc1-c1ccccc1Cl	9
O=C(Nc1ccc(-c2ccccc2)cc1)c1ccco1	9
COC(=O)C1=C(C)N(Cc2cccnc2)C(=O)/C1=C\c1sccc1C	19
CC1(C)Cc2ccccc2C(=NCCCCCC(=O)O)N1	13
Cc1nc(SCC(=O)Nc2nc3ccccc3s2)c(C#N)c(C)c1C	10
Cc1ccc(C(O)CN2C3=NCCCN3c3ccccc32)cc1 (centres undefined)	4
COC(=O)c1cnc2c(c(C)nn2C)c1OC	4
O=C(CCCN1C(=O)c2cccc3cccc(c23)C1=O)NCc1ccco1	29
C=CCn1c(C)cc(C(=O)COC(=O)c2ccc3c(c2)NC(=O)CS3)c1C	16
O=[N+]([O-])c1cc(Cl)c(O)c2ncccc12	22
CSc1nnc(C)c(=O)n1COC(=O)c1ccc(S(=O)(=O)N(C)C)cc1	9
COc1cccc(/C=N/c2sc(Cc3ccccc3)c(C)c2C(N)=O)c1O	6
O=[N+]([O-])c1ccc(N2CCCCC2)cn1	7

# Further compounds:
mol	Calb biofilm kill
COc1ccccc1NC(=S)N(CCCN1CCOCC1)Cc1ccccn1	14
CCN(CCN(C)C)C(=O)c1ccc2c(c1NCCO)C(=O)c1ccccc1C2=O	3
Cn1ccc(=Nc2ccc(NC(=O)c3ccc(N=c4ccn(C)c5ccc([N+](=O)[O-])cc45)cc3)cc2)cc1	15
O=C1CCCN2N=C(SCC(=O)Nc3nccs3)SC2=N1	14
COc1cc(S(=O)(=O)NCCCN2CCOCC2)ccc1-n1cnnn1	5
CC(=O)c1sc2nsc(SCCN3CCOCC3)c2c1N	20
CCCNc1nc(Cl)nc(NCc2cccnc2)n1	25
COC(=O)CCC(=O)OC1(C)C(=O)C=C2C=C(C3CC3)N(C3CCCC3)C=C2C1=O (centres undefined)	23
Cc1nc2c(c(=O)c3ccccc3n2C)c(=O)n1C1CCCCCC1	9
Cc1cc(C)cc(Nc2ncnc3nc[nH]c23)c1	19
Oc1ccc(C[C@@H]2CNC(=S)N2CCCCC2CCCCC2)cc1	16
CC(C)N1CCC(=NNc2ccc([N+](=O)[O-])cc2S(=O)(=O)N2CCOCC2)CC1	6
Cc1ccc2oc(-c3cccc(NC(=O)/C=C/c4cccc([N+](=O)[O-])c4)c3C)nc2c1	27
Cc1ccc(NC(=O)/C(=C/c2cccc(Br)c2)NC(=O)c2ccco2)cc1	9
Cc1nc(CN(C)C(=O)c2cc(COc3ccc4ncccc4c3)on2)cs1	14
O=C(COC(=O)C(Cc1ccccc1)NC(=O)c1ccccc1)c1ccccc1 (centres undefined)	7
O=C(CCC(=O)N/N=C/c1ccc(Br)s1)NCc1ccccc1	7
O=c1[nH]c(=O)n([C@H]2C[C@H](O)[C@@H](CO)O2)cc1F	-4
CC(=O)CCc1oc2ccc(C)cc2c1-c1ccccc1	16
O=C(NCCN1CCOCC1)C(=O)NCC1OCCN1C(=O)c1ccc(Cl)cc1 (centres undefined)	8

# Ordered by molar mass (largest number first): some entries from above
mol	Calb biofilm kill
Cn1ccc(=Nc2ccc(NC(=O)c3ccc(N=c4ccn(C)c5ccc([N+](=O)[O-])cc45)cc3)cc2)cc1	15
O=C(NCCN1CCOCC1)C(=O)NCC1OCCN1C(=O)c1ccc(Cl)cc1 (centres undefined)	8
O=C(CCC(=O)N/N=C/c1ccc(Br)s1)NCc1ccccc1	7
CCCNc1nc(Cl)nc(NCc2cccnc2)n1	25

# Later entries:
mol	Calb biofilm kill
O=C(CCNC(=O)c1ccccc1)N=Nc1c(O)[nH]c2ccccc12	0
COc1ccc(/C=N/NC(=O)c2ccc(Br)o2)cc1Cn1cc([N+](=O)[O-])cn1	16
C#CCOCCOCCOCCNc1nc(N2CCN(C(=O)[C@H](CCC(=O)O)n3cc(C(N)Cc4ccc(O)cc4)nn3)CC2)nc(N2CCN(C(=O)[C@H](Cc3cc4ccccc4[nH]3)n3cc(C(N)CC(C)C)nn3)CC2)n1 (some centres undefined)	16
COc1ccc(-c2[nH]ncc2CN2C[C@@H]3CCC[C@H]2C3)c(F)c1	2
COc1c(C)cc(C(=O)C2CCCN(C(=O)/C=C/c3ccccn3)C2)cc1C (centres undefined)	12
N#C/C(=C\c1cccc([N+](=O)[O-])c1)C(=O)Nc1cccnc1	11
CCOc1cc(CNc2ccc(N3CCCC3)cc2)cc(Cl)c1OC	18
Cc1cccc(OCc2nc(C#N)c(N3CCCC3)o2)c1	14
Cn1cc(CN2CCN(Cc3cccnc3)CC2)c(-c2ccc3c(c2)OCCO3)n1	14
O=C(CCc1cnccn1)NC1CCCc2c1cnn2-c1ccc(F)cc1F (centres undefined)	22
COc1ccc(CCNC(=O)C(Sc2ccccn2)c2ccccc2)cc1OC (centres undefined)	3
Cc1ccccc1Nc1nc(NCc2ccco2)c2ccccc2n1	8
COc1cccc(Cn2nnc(C(=O)NCc3ccc4c(c3)OCO4)c2N)c1	21
Nc1nc(-c2ccco2)nn1S(=O)(=O)c1ccccc1	20
COc1ccc(-c2nsc3c(N4CCCCC4C)ncnc23)cc1 (centres undefined)	5
CCN(CC)CCOc1c(C)cccc1Cl	15
Cc1cc(=O)oc2cc(OCCCN3C(=O)c4ccccc4C3=O)ccc12	2
O=S(=O)(c1ccccc1)N1CCN(CC2CC3C=CC2C3)CC1 (centres undefined)	7
COc1cc(-c2nnc(SCC(=O)N3c4ccccc4Sc4ccccc43)o2)cc(OC)c1OC	19
O=C1CN(C(=O)CSc2nnc(Nc3ccccc3)s2)c2ccccc2N1	12

# Later entries.
mol	Calb biofilm kill
CCCCOc1ccc(C(=O)NN2CCN(C)CC2)cc1	10
Cc1cccc(C(=O)OCC(=O)Nc2sc3c(c2C#N)CCC3)c1	13
CCN(CC)CCCNC(=S)N(Cc1cccnc1)Cc1cc2cccc(C)c2[nH]c1=O	14
CC(C)(C)c1ccc(NNC(=O)C2CCC2)cc1	11
COc1ccc([C@@H]2C[C@@H](c3ccccc3)Oc3cc(OC)cc(OC)c32)cc1	14
Cc1[nH]nc(N)c1-c1ccc(Cl)cc1	15
Cc1cc(NC(=O)CCC(=O)N(Cc2cccs2)C(C(=O)NC2CCCC2)c2ccccc2)no1 (centres undefined)	13
Cc1cc(C)nc(N2CCCC(C(=O)NCc3ccc4c(c3)OCO4)C2)n1 (centres undefined)	18
O=C1CCCN1CCCNS(=O)(=O)c1cccc(F)c1	16
N#C/C(=C\c1c(Cl)cccc1Cl)c1nc2ccccc2o1	11
CN(CC1CCOCC1)C(=O)CC1C(=O)NCCN1Cc1ccc(-c2ccccc2)cc1 (centres undefined)	2
O=[N+]([O-])c1ccc(NCCNCCOc2nonc2-c2ccccc2)c([N+](=O)[O-])c1	9
COc1ccccc1NC(=S)N1CCN(Cc2ccccc2)CC1	10
O=C(Nc1ccc(-n2cccc2)cc1)C1CC1	17
COc1ccc(Cl)cc1NC(=S)NCc1ccc(S(N)(=O)=O)cc1	17
CC(C)[C@H](CO)N(Cc1cccc(F)c1)c1nc(Nc2cccc(Cl)c2)c2ncn(C(C)C)c2n1	31
O=C(Nc1ncc(Cc2ccc(Cl)cc2Cl)s1)c1ccc([N+](=O)[O-])cc1	13
Cc1cccc(NC(=S)NCCSc2ccc(Cl)cc2)c1	16
Cc1ccc(S(=O)(=O)N(C)C)cc1NC(=S)NC(=O)C12CC3CC(CC(C3)C1)C2	11
CN(C)c1ccnc2c[cH-]cc12.[Fe].c1ccc(-[c-]2[c-](-c3ccccc3)[c-](-c3ccccc3)[c-](-c3ccccc3)[c-]2-c2ccccc2)cc1 (centres undefined)	15&16

# Grouped by structure, those above with bromine
mol	Calb biofilm kill
Cc1ccc(NC(=O)/C(=C/c2cccc(Br)c2)NC(=O)c2ccco2)cc1	9
O=C(CCC(=O)N/N=C/c1ccc(Br)s1)NCc1ccccc1	7
COc1ccc(/C=N/NC(=O)c2ccc(Br)o2)cc1Cn1cc([N+](=O)[O-])cn1	16

# Remaining list, next part:
mol	Calb biofilm kill
CC(C)(C)NS(=O)(=O)c1ccc(CCC(=O)NCc2ccc3c(c2)OCO3)cc1	9
COc1ccc(OC(C)C(=O)Nc2ccc(F)cc2F)cc1 (centres undefined)	12
O=C(CSc1ccc(Cl)cc1)N/N=C/c1cccnc1	8
CC(=O)N1CCN(C(=O)CCc2nnc(CCCCc3ccccc3)o2)CC1	21
COc1ccc(/C(C#N)=C/c2cccnc2)cc1	17
COc1ccc(NC(=O)N(Cc2cccs2)Cc2cc3cc4c(cc3[nH]c2=O)OCO4)cc1	16
Fc1ccc(/C=N/N2CCOCC2)c(F)c1	17
Cn1c2c(c(=O)[nH]c1=O)C(c1ccc(O)cc1)C1=C(N2)c2ccccc2C1=O (centres undefined)	17
CC(Sc1nnc2ccccn12)C(=O)Nc1ccc2c(c1)OCO2 (centres undefined)	-7
O=C(Oc1coc(CSc2ncccn2)cc1=O)c1ccccc1[N+](=O)[O-]	11
CCN(CC)C(=O)Oc1ccc(Br)cc1C(=O)Nc1ccc(F)cc1F	20
CN(C)S(=O)(=O)c1ccc(NC(=O)CN2CCc3ccccc32)cc1	7
CCCOc1ccc(C(=O)CCNc2cccc(Cl)c2)cc1	8
C/C(=N\NC(=O)c1ccc(NS(=O)(=O)c2cccs2)cc1)c1ccccc1	10
Cc1cc(=O)n2[nH]cnc2n1	7
NC(=O)C(C(=O)/C=C/c1ccc(Cl)cc1)=C1SCCS1	14
COC(=O)c1ccccc1NC(=O)CSc1n[nH]c(C)n1	10
COC(=O)C1=C(C)OC(N)=C(C#N)C1c1ccsc1 (centres undefined)	6
COc1ccc(/C=C2\SC(N3CCc4ccccc4C3)=NC2=O)cc1	15
COC(=O)CC1C(=O)NCCN1C(=O)OC(C)(C)C (centres undefined)	-1

# (further entries)
mol	Calb biofilm kill
N#C/C(=C/c1ccccc1)C(=O)NCc1ccccc1	12
O=C(Cn1nnc(-c2ccccc2)n1)NNC(=O)c1ccco1	56
COc1ccccc1CCc1nnc(CCC(=O)NCCOc2cccnc2)o1	16
CCCCCC(=O)OC(CN1CCCCCC1)CN1CCCC1=O (centres undefined)	1
O=C(c1ccccn1)N1CC=C(c2ccccc2)CC1	11
O=C(CCNS(=O)(=O)c1ccc(Cl)cc1)OCC(=O)c1ccc[nH]1	8
Cc1ccc(NC(=S)N(CCCN2CCC(C)CC2)Cc2ccco2)cc1	-4
CNC(=O)CSc1nnc(-c2ccccn2)n1Cc1ccco1	8
C=CCn1c(C(C)NC(=O)C(C)(C)C)nc2ccccc21 (centres undefined)	18
Cn1c(N)c(S(=O)(=O)N2CCN(Cc3ccccc3)CC2)c(=O)n(C)c1=O	20
CC(C)(C)OC(=O)N/N=C\C=C\c1ccc2c(c1)OCO2	16
CSc1ccccc1NC(=O)CSc1n[nH]c(C)c1[N+](=O)[O-]	10
CCc1ccc(NC(=O)c2cnc(N3CCN(c4ccccn4)CC3)c3ccccc23)cc1	14
Cc1ccccc1-n1c(SCc2csc(Nc3ccccc3)n2)nnc1-c1cccnc1	17
O=C1OC(C(=O)NCc2ccccc2)Cc2ccccc21 (centres undefined)	-1
COc1ccc(N2Cc3ccccc3/C2=N\C(=O)Nc2ccccc2)cc1	4
CN1CCN(C(=S)NC(=O)c2ccc(S(=O)(=O)N3CCOCC3)cc2)CC1	-31
COc1ccc(C(CNC(=O)COc2ccc(-c3ccccc3)cc2)N2CCOCC2)cc1 (centres undefined)	21
O=C(NC1CCCc2ccccc21)C1CCN(S(=O)(=O)c2cccc(C(F)(F)F)c2)CC1 (centres undefined)	10
O=C(CSc1nnc(SCc2ccc(Cl)cc2)s1)N/N=C/c1ccc(C(=O)O)cc1	9

# Other compounds follow.
mol	Calb biofilm kill
COc1ccccc1NC(=S)NC(C)C(c1cccs1)N1CCOCC1 (centres undefined)	17
O=C(Nc1ccccc1)Nc1nnc(COc2ccccc2F)s1	24
CN(C)S(=O)(=O)c1ccc(N2CCCC2)c(C(=O)NCC2CCCCC2)c1	9
CC1=CC2=NC(=O)/C(=C\c3cn(C)c4ccccc34)C(=N)N2O1	-3
Cc1ccc(NC(=O)CSCc2n[nH]c(=O)[nH]2)c(Br)c1	13
CCCC(=O)Nc1ccccc1NC(=O)c1ccc(OC)cc1	-1
O=C(c1ccc(F)cc1)N1CCN(C2CCC(c3ccccc3)CC2)CC1 (centres undefined)	19
O=C(N/N=C/c1ccncc1)c1ccc(COc2cccc3cccnc23)cc1	12
O=C(CSc1ccc(-c2ccccn2)nn1)c1ccc([N+](=O)[O-])cc1	17
Cc1c(C2C(C#N)=C(N)N(c3cccc([N+](=O)[O-])c3)C3=C2C(=O)CCC3)cnn1C (centres undefined)	0

# High-throughput results from PubChem.
